Sa growth 42C: inhibitors of Staphylococcus aureus growth at 42 °C | S. aureus RN4220 growth, OD600, 20 h; active compounds read low | relative growth, % (test concentration not listed) | 0.53% of 170,000 active;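 active = growth at 42 °C up to 50% and 20 or more points under that at 30 °C, or under 10% at both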;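 also: 300 nL library stock went into each well; scaled to the means of positive and negative controls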
HCMV UL50-53 inh: inhibitors of HCMV UL50-UL53 nuclear egress complex interaction; inhibition, % (concentration not given with the values); 0.15% of 190,000 active; AID 1918969; HTRF UL50-UL53 interaction, normalized percent inhibition;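 active = both replicates at 50% or more, plus weaker picks with an unusually low signal ratio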;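 also: stock transfer was 100 nL into about 20 µL; 0% = negative control wells and 100% = wells with untagged competitor protein; inactives centre near -12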
GIV Gai3 FP: inhibitors of GIV GBA-motif binding to rat Galpha-i3; Galpha-i3/FITC-GIV peptide fluorescence polarization, 90 min; active compounds read low; scaled: aluminum fluoride 0%, vehicle 100%; percent of control (FP), % (test concentration not listed); 0.42% of 210,000 active;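 active = replicate mean at 85% of control or lower, very high polarization wells dropped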;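 also: lower values mean more displacement of the GIV peptide from Galpha-i3; wells of about 15 µL received 100 nL stock; the first replicate is given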
Target sequence (P08753 whole entry, looked up): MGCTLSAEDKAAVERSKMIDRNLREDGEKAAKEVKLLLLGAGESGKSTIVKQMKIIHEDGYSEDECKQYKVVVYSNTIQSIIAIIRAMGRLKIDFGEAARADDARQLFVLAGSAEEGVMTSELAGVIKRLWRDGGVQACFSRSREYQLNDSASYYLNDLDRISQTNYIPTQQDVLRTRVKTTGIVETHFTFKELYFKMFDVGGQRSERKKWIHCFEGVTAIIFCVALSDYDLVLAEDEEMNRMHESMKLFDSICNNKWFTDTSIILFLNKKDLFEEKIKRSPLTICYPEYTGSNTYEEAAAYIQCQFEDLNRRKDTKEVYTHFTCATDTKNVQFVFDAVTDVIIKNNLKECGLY
Sa growth 42C second temp: second read-out of Sa growth 42C, no call of its own (marks repeat the call); relative growth, %; measured here: growth at 30 °C;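 optical density after 20 h as mean of two plates; 100% = untreated growth and lower means inhibition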
Numbers without * were called inactive; · = not tested or not shown; & = joins results of further samples. An unsorted share of the library. About 0.85% of those tested had a hit in this group.

1) CCOC(=O)c1c(CSC#N)oc2ccc(OC(C)=O)cc12
2) CCOC(=O)c1nccnc1N(C(=O)c1ccc(C)cc1)C(=O)c1ccc(C)cc1
3) O=C1c2ccccc2-c2onc3c(Br)cc(NC4CCCCC4)c1c23
4) COc1ccc(Cc2nnc(N)o2)cc1OC
5) CC1=CC(C)C(COC(=O)CN2CCOCC2)C(C)C1 (stereo unspecified)
6) COc1ccc(C(C#N)=C2SCCS2)cc1
7) CCCC(C)NC(=O)c1cnc2scc(C)n2c1=O (stereo unspecified)
8) Cc1cc(C)n2nc(C(=O)NC(C)C3CC4CCC3C4)nc2n1 (stereo unspecified)
Assay by compound	1	2	3	4	5	6	7	8
Sa growth 42C second temp	86	97	89	89	92	92	·	91
GIV Gai3 FP	100	·	86	93	95	100	106	·
Sa growth 42C	81	97	108	87	112	121	·	62
HCMV UL50-53 inh	-15	-9	-21	49	-14	-5	-13	-18

9) Nc1ccc(N2CCn3c(nc4ccccc43)C2)cc1
10) COc1cccc(NC(=O)CSc2ncc3c(n2)-c2ccccc2N(Cc2ccc(C)cc2)S3(=O)=O)c1
11) CCOC(=O)C1CCCN(c2cc(C)nc3c(-c4ccccc4OC)c(C)nn23)C1 (stereo unspecified)
12) COc1ccc2cc3c(nc2c1)N(S(=O)(=O)c1c(C)cc(C)cc1C)CC3
13) COC(=O)c1cccc(Nc2c(-c3ccc(O)cc3)nc3nc[nH]n23)c1
14) O=C1c2ccccc2-c2c(NCCc3ccccc3)c(=O)[nH]c3cccc1c23
15) O=C(Cn1cc(SCc2ccccc2Cl)c2ccccc21)N1CCCCCC1
16) O=C(Nc1ccccc1)OCC12COC(c3ccccc3)N1C(c1ccccc1)OC2 (stereo unspecified)
Assay by compound	9	10	11	12	13	14	15	16
Sa growth 42C second temp	·	·	91	·	102	76	102	77
GIV Gai3 FP	114	108	100	99	111	-73*	105	·
Sa growth 42C	·	·	100	·	109	130	121	109
HCMV UL50-53 inh	-18	-23	·	-7	·	·	·	-14

17) Cc1ccccc1-c1noc(-c2cc(-c3cccc(Br)c3)n[nH]2)n1
18) O=C(Nc1ncn[nH]1)c1ccccc1O
19) CN1CCCC(OC(=O)C2CCCCC2)C1 (stereo unspecified)
20) CS(=O)(=O)c1sc(C(=O)Nc2ccc(Cl)cc2)c2c1C=CCC2
21) Cc1cccn2c(=O)c(NC(=O)c3ccccc3)cnc12
22) O=C(NCCNc1ccc2ccccc2c1)c1ccc2nc3ccc(Cl)cc3c(=O)n2c1
23) CCOC(=O)Cn1c(=O)oc2cc(S(=O)(=O)Nc3cccc(CC)c3)ccc21
24) Cc1ccc(C)c(NC(=O)CCNS(=O)(=O)c2ccc3c(c2)CCCC(=O)N3)c1
Assay by compound	17	18	19	20	21	22	23	24
Sa growth 42C second temp	·	94	89	71	·	81	80	96
GIV Gai3 FP	110	·	·	101	100	105	106	105
Sa growth 42C	·	81	107	98	·	101	84	89
HCMV UL50-53 inh	-12	13	-10	-12	-109	·	·	·

25) CC12CCC(=O)N1C(C(=O)Nc1cccc3ccccc13)CS2 (stereo unspecified)
26) Nc1nonc1-n1nnc(C(=O)N/N=C/c2ccncc2)c1-c1ccccc1
27) COc1nnc(-c2ccc(N3CCCCC3)c(NC(C)=O)c2)c2ccccc12
28) CCOc1ccc(NS(=O)(=O)c2ccc3[nH]cc(C(=O)NCc4ccco4)c(=O)c3c2)cc1
29) Cn1cc(CN(Cc2ccccc2)C(=O)Nc2ccccc2)c2ccccc21
30) Cc1cccc(C(=O)Nc2ccc3c(c2)CCC(=O)N3C)c1
31) COc1cc(NC(=O)c2cccc3c2C(=O)N(C2CCCCC2)C3)cc(OC)c1
32) COc1ccc(-n2c(C)cc(CNS(=O)(=O)c3ccc(NC(C)=O)cc3)c2C)cc1
Assay by compound	25	26	27	28	29	30	31	32
Sa growth 42C second temp	81	83	88	71	90	·	88	·
GIV Gai3 FP	·	101	107	101	104	103	104	121
Sa growth 42C	105	90	72	106	92	·	98	·
HCMV UL50-53 inh	-31	-17	·	-19	·	-32	-26	-24

33) COc1ccc(C2CC(C3(C)CCCCC3)=NO2)cc1 (stereo unspecified)
34) O=C(O)CC(CC(=O)N1CCN(C(=O)c2ccco2)CC1)c1ccccc1 (stereo unspecified)
35) N#CC1=C(N)Oc2cc(O)ccc2C1c1ccccc1 (stereo unspecified)
36) CC(=O)N1CCCc2ccc(NC(=O)C(C)C)cc21
37) CCc1ccc(C2NC(=O)NC3=C2C(=O)CC(C)(C)C3)cc1 (stereo unspecified)
38) CCN(CC)S(=O)(=O)c1ccc(N(C)Cc2ccccc2OC)nc1
39) Cc1ccc(C)c(NC(=O)CN2CCSc3ccc(S(=O)(=O)N4CCCC4)cc32)c1
40) CCOc1cccc(C2C(C(=O)OC)=CN(CC)C=C2C(=O)OC)c1
Assay by compound	33	34	35	36	37	38	39	40
Sa growth 42C second temp	91	92	99	91	89	77	85	97
GIV Gai3 FP	·	103	104	110	101	·	104	·
Sa growth 42C	74	96	88	82	99	118	108	83
HCMV UL50-53 inh	-20	0	-10	-24	·	1	·	6

41) O=C1NC(c2ccccc2)(c2ccccc2)C(=O)N1CN1CCN(S(=O)(=O)c2cccs2)CC1
42) Cc1cc(-c2nnc(-c3ccc(C(F)(F)F)cc3)o2)no1
43) CCOC(=O)N1CCC(NC(=O)c2ccc3nc(-c4cccs4)c(-c4cccs4)nc3c2)CC1
44) Cc1sc(N)c(C(N)=O)c1C
45) COc1ccccc1NC(=O)N1CCCn2nc(C)cc21
46) Cc1c(Cl)cccc1NC(=O)C(=O)NCCc1csc(-c2ccc(C(F)(F)F)cc2)n1
47) CCOC(=O)c1c(C)[nH]c(C(=O)CSc2nccc(C)n2)c1C
48) Cc1ccc2nc(-c3ccc(NC(=O)c4cccc5c(Br)cccc45)cc3)sc2c1
Assay by compound	41	42	43	44	45	46	47	48
Sa growth 42C second temp	97	103	86	86	·	90	93	·
GIV Gai3 FP	·	104	102	·	106	104	·	105
Sa growth 42C	85	101	106	98	·	120	111	·
HCMV UL50-53 inh	-4	6	2	-20	-28	·	6	-11

49) O=C(c1ccc2nc(N3CCCCC3)sc2c1)N1CCN(c2ccccn2)CC1
50) CC1CNc2ccccc2N(Cc2ccccc2Cl)C1=O (stereo unspecified)
51) CN(C)c1ccc(CNC(=O)Cn2c(-c3cccs3)cc3cc(Cl)ccc32)cc1
52) CCOc1ccc(-c2oc3ccccc3c(=O)c2O)cc1OCC
53) CC(CC(N)=O)c1ccccc1 (stereo unspecified)
54) COC(=O)Nc1ccccc1C(=O)N1CCCCC1
55) O=C(O)C1CC=CCC1C(=O)NNc1ncnc2ccccc12 (stereo unspecified)
56) COc1ccc(OCC(=O)N=Nc2c(O)n(C)c3ccccc23)cc1
Assay by compound	49	50	51	52	53	54	55	56
Sa growth 42C second temp	·	·	92	93	99	90	94	84
GIV Gai3 FP	98	104	112	117	101	99	·	103
Sa growth 42C	·	·	103	97	99	104	102	113
HCMV UL50-53 inh	2	-11	·	-56	1	-8	-20	-40

57) COc1ccc(-c2cc(C(=O)Nc3cc(C)on3)c3ccccc3n2)cc1OC
58) O=C(c1cc(-c2ccccc2)nc2ccccc12)N1CCN(c2ccccc2)CC1
59) NC(=O)C1CCN(C(c2ccc(F)cc2)c2nnc(-c3ccccc3)o2)CC1 (stereo unspecified)
60) NC(=O)c1ccc(C(F)(F)F)cc1
61) Cc1ccc(NC2CC(C)N(C(=O)c3ccccc3C)c3c(C)cccc32)cc1 (stereo unspecified)
62) CCOc1ccc(NC(=O)C(NS(=O)(=O)c2cccs2)c2ccccc2)cc1 (stereo unspecified)
63) CS(=O)(=O)c1ccc(NC(=O)COc2ccc(C#N)cc2)cc1
64) COc1ccc(CCNC(=O)CSCc2nc(-c3ccc(OC)c(OC)c3)oc2C)cc1OC
Assay by compound	57	58	59	60	61	62	63	64
Sa growth 42C second temp	·	·	86	84	·	89	87	90
GIV Gai3 FP	106	94	100	·	107	98	·	105
Sa growth 42C	·	·	98	105	·	119	116	89
HCMV UL50-53 inh	-31	-7	-38	-3	-6	-4	-21	-19

65) Clc1ccc(C=Nc2ccc(-c3cnco3)cc2)cc1
66) CCOCCOC(=O)c1ccc(NC(=O)C2COc3ccccc3O2)cc1 (stereo unspecified)
67) CCn1c(C(=O)O)c(CC(=O)Nc2ccc(Oc3ccccc3)cc2)c2ccccc21
68) COc1cc(NC(=O)C2CC(=O)N(c3cccc(C)c3C)C2)c(OC)cc1Cl (stereo unspecified)
69) CCOC(=O)CSc1nn(CC)c2nc3c(c(=O)n12)C(CC)(CC)Cc1ccccc1-3
70) CCOC(=O)Cn1c(=O)n(CC2CCCO2)c2nc(-c3ccc(CC)cc3)nc(C(N)=O)c21 (stereo unspecified)
71) CCOC(=O)C1CCN(C(=O)C2c3ccccc3C(=O)N3CCc4ccccc4C23)CC1 (stereo unspecified)
72) O=C(Nc1ccccc1Cl)C1CCN(c2nc3ccccc3nc2C(F)(F)F)CC1
Assay by compound	65	66	67	68	69	70	71	72
Sa growth 42C second temp	85	·	·	100	·	95	94	90
GIV Gai3 FP	98	103	102	108	102	105&104	101&100	105&107
Sa growth 42C	98	·	·	64	·	98	110	85
HCMV UL50-53 inh	-4	-2	-9	10	-23	1	4	-4

73) CCCc1nc2ccccc2n1CC(O)COc1ccc(C(=O)OC)cc1 (stereo unspecified)
74) CC(C)OC(=O)CSc1nnc(-c2ccccc2)n1Cc1ccco1
75) COc1ccccc1-c1csc(-c2nnn(-c3ccccc3)c2N)n1
76) CC(=O)c1sc(N2N=C(c3cccs3)CC2c2ccc(F)cc2)nc1C (stereo unspecified)
77) COc1cccc2c1OCc1sc3[nH]c(=S)[nH]c(=O)c3c1-2
78) CC(=O)n1c2ccccc2c2nc(N)sc21
79) O=C(Nc1ccc(Br)cc1F)N1CCC(CN2CCCC2)CC1
80) O=C(CSc1ccccc1)N/N=C/c1ccccc1O
81) NC(=O)c1nnc2ccccc2c1N
82) O=C(Cc1cn2ccsc2n1)N/N=C1/CCSc2ccc(F)cc21
83) O=C(NCCc1ccccc1)c1ccc(CSc2nc3cccnc3n2Cc2ccc(F)cc2)cc1
Assay by compound	73	74	75	76	77	78	79	80	81	82	83
Sa growth 42C second temp	85	76	·	·	32	57	100	96	84	92	89
GIV Gai3 FP	96	98	117	102	118	100	109	102	103	·	99
Sa growth 42C	92	107	·	·	50	79	107	114	94	82	111
HCMV UL50-53 inh	-6	-21	-3	-18	-62	·	·	-17	-74	-74	·

Entries above containing two or more sulfur atoms:
6) COc1ccc(C(C#N)=C2SCCS2)cc1
10) COc1cccc(NC(=O)CSc2ncc3c(n2)-c2ccccc2N(Cc2ccc(C)cc2)S3(=O)=O)c1
20) CS(=O)(=O)c1sc(C(=O)Nc2ccc(Cl)cc2)c2c1C=CCC2
39) Cc1ccc(C)c(NC(=O)CN2CCSc3ccc(S(=O)(=O)N4CCCC4)cc32)c1
41) O=C1NC(c2ccccc2)(c2ccccc2)C(=O)N1CN1CCN(S(=O)(=O)c2cccs2)CC1
43) CCOC(=O)N1CCC(NC(=O)c2ccc3nc(-c4cccs4)c(-c4cccs4)nc3c2)CC1
62) CCOc1ccc(NC(=O)C(NS(=O)(=O)c2cccs2)c2ccccc2)cc1 (stereo unspecified)
76) CC(=O)c1sc(N2N=C(c3cccs3)CC2c2ccc(F)cc2)nc1C (stereo unspecified)
77) COc1cccc2c1OCc1sc3[nH]c(=S)[nH]c(=O)c3c1-2
82) O=C(Cc1cn2ccsc2n1)N/N=C1/CCSc2ccc(F)cc21
Assay by compound	6	10	20	39	41	43	62	76	77	82
Sa growth 42C second temp	92	·	71	85	97	86	89	·	32	92
GIV Gai3 FP	100	108	101	104	·	102	98	102	118	·
Sa growth 42C	121	·	98	108	85	106	119	·	50	82
HCMV UL50-53 inh	-5	-23	-12	·	-4	2	-4	-18	-62	-74

Just GIV Gai3 FP, Sa growth 42C and HCMV UL50-53 inh (three entries from above):
entry	mol	GIV Gai3 FP	Sa growth 42C	HCMV UL50-53 inh
57	COc1ccc(-c2cc(C(=O)Nc3cc(C)on3)c3ccccc3n2)cc1OC	106	·	-31
58	O=C(c1cc(-c2ccccc2)nc2ccccc12)N1CCN(c2ccccc2)CC1	94	·	-7
59	NC(=O)C1CCN(C(c2ccc(F)cc2)c2nnc(-c3ccccc3)o2)CC1 (stereo unspecified)	100	98	-38
